Screens (PubChem)
Vif TR-FRET – HIV-1 Vif–A3G interaction blockers – biochemical, TR-FRET, GST-Vif 1-94, biotin-A3G peptide, dose response retest, primary screen (AID 1117319); 0.57% of 260,000 active; one-dose inhibition, %; IC50 in µM for titrated hits; TR-FRET GST-Vif / biotin-A3G peptide binding; higher % means a stronger effect; test concentration not given here; strong numbers were not always called active;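 active means above the screen mean plus three standard deviations and confirmed in dose response; inconclusive means results disagree or hit not tested in dose response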;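 further: Vif residues 1-94 fused to GST binding biotinylated APOBEC3G peptide 110-148; 0% = full assay without inhibitor and 100% = GST in place of GST-Vif; retest series ran down from 100 µM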
B2AR ag – agonists of human beta-2 adrenergic receptor inducing internalization. response, % (no concentration beside the values). Am2.2-beta2AR cells, FAP receptor internalization, flow cytometry; reference of the scale not given here. 0.43% of 340,000 active. P07550;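 active means response above a set limit, near 3 SD of response in nonfluorescent compounds, cut at about 42% in these data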;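 further: stock transfer was 100 nL into about 11 µL; a reference agonist was the positive control; negative values mostly stem from fluorescent compounds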
LANA-H2B inh – blocks KSHV LANA binding to histone H2A/H2B. Q9QR71. cell-free LANA-H2A/H2B peptide, fluorescence polarization. inhibition, % (test concentration not listed). 0.6% of 320,000 active. AID 2629; in the data active means inhibition mostly above about 10%, no sharp cut-off; inactive means mostly below about 6.7%;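 further: stock transfer was 7.5 nL into about 10 µL; 0% = median of vehicle wells and 100% = median of positive control wells; one replicate is shown; the record names a cut of 25% in any replicate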
Calb FLC – affects C. albicans growth with fluconazole; C. albicans CaCi-2 (fluconazole-resistant clinical isolate) + fluconazole, Alamar Blue growth, 48 h; growth inhibition, % (concentration not given with the values); 0.57% of 300,000 active; AID 1979;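 active means most replicates above 75%; inconclusive means exactly half above 75%; inactive means most below 75%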;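 further: all wells also contain fluconazole at 8 µg/ml as a sub-toxic cotreatment; 0% = median of DMSO wells and 100% = median of geldanamycin control wells; wells of about 8 µL received 7.5 nL stock; the first replicate is given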
RanGTP-Imp inh – inhibitors of RanGTP-importin-beta interaction, primary screen, biochemical, FRET, CFP-Ran, YFP-importin-beta, homogeneous | cell-free CFP-Ran/YFP-importin-beta FRET ratio | inhibition, % (no concentration beside the values) | 1.1% of 300,000 active;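 active means most replicates above 15%; inconclusive means exactly half above 15%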;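 further: 0% = DMSO wells and 100% = Ran loaded with GDP instead of GTP; wells of about 40 µL received 100 nL stock; the first replicate is given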
ALR inh – inhibitors of human sulfhydryl oxidase ALR. 3.8% of 290,000 active. purified ALR, DTT oxidation, H2O2 HRP-luminol luminescence. P55789. inhibition, % (test concentration not listed). AID 485317;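 active means mean and each replicate at 75% or more; inconclusive means only one of the two met; inactive means neither met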;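 further: stock transfer was 7.5 nL into about 7.5 µL; 0% = neutral wells and 100% = wells with inactivated enzyme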
Target sequence (P55789 whole entry, looked up): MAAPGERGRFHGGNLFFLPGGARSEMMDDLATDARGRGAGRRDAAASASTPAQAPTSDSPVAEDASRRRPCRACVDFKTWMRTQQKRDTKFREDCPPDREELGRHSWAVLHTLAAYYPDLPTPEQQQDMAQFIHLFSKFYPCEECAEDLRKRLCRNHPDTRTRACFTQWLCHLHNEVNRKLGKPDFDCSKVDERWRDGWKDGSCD
HNF4A DNA FP – change in binding of human HNF4 alpha to DNA. P41235. HNF4a-FITC DNA binding, fluorescence polarization, 1 h. activity change, % at 10 µM. 0.3% of 360,000 active; in the data active means activity change above about 30%, passing the limit was not always enough;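 further: controls were the assay level and a saturating level of protein; the project sought stronger binding though the title names inhibitors; some compounds called inactive have numbers as strong as hits; positive values seem to mean higher polarization but the record does not say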
Target sequence (P41235 whole entry, looked up): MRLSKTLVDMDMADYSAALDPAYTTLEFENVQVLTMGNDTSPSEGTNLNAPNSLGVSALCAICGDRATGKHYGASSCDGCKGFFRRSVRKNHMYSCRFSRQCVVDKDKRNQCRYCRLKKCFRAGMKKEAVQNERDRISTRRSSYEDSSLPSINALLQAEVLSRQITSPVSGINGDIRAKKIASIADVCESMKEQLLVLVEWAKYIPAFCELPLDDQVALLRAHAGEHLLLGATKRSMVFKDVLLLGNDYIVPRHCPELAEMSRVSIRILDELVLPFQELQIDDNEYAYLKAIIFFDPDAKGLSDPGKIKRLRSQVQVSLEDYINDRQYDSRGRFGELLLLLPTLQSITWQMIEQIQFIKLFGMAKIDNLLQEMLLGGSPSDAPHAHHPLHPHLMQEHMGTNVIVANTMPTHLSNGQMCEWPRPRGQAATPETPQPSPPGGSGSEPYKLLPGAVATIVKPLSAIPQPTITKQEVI
Active calls of the source: *; u = inconclusive; x = not tested or not shown.

Order of values – Vif TR-FRET	B2AR ag	LANA-H2B inh	Calb FLC	RanGTP-Imp inh	ALR inh	HNF4A DNA FP
1	C=CCN=C(C)C1=C(O)C(C)OC1=O (stereo not given)
→ x	-1.7	-5.9	-23.2	-1.8	x	1.4
2	CCOC(=O)c1ccc(S(=O)(=O)N2CCN(C(C)=O)CC2)cc1
→ 2.3%	6.0	x	22.4	-0.6	x	2.4
3	COC(=O)C1=C(NC(=O)c2ccc(C)c(C)c2)CCS1
→ -3.1%	3.7	2.3	-4.8	-2.4	51.4	-1.6
4	CCN(CC(=O)NCc1cccs1)S(=O)(=O)c1ccc(NC(C)=O)cc1
→ x	-16.4	6.9	4.5	1.3	-10.6	2.4
5	S=c1[nH]c(-c2ccccc2)cn1/N=C/c1cccnc1
→ 5.4%	-7.7	1.6	-4.9	-2.1	x	-2.5
6	O=C(NCCC1CCCCN1S(=O)(=O)c1ccccc1)C(=O)NC1CCCC1 (stereo not given)
→ 2.6%	5.9	-0.3	-1.3	0.4	2.1	9.3
7	O=C(NCc1n[nH]c(=S)n1-c1ccccc1)c1ccc(S(=O)(=O)N2CCOCC2)cc1
→ 7.9%	0.5	-4.0	-5.5	u	90.9*	3.8
8	CCOC(=O)c1cc(C(=O)NN)c(C)nc1C
→ 0.9%	6.8	0.8	-6.4	-0.9	33.2	0.7
9	Cc1ccc(NC(=O)COc2ccc(C3SCCS3)cc2)cc1
→ 0.3%	1.2	6.1	-3.7	2.5	x	3.2
10	Cc1ccc2nc(SCc3cn4cccnc4n3)[nH]c2c1
→ 24.3%	-12.1	2.7	6.5	4.6	x	-5.7
11	COc1ccc(C)cc1S(=O)(=O)NCCc1ccccc1
→ -4.3%	-4.5	0.0	1.5	-2.1	x	-1.1
12	CCOC(=O)c1ccc(NC(=O)CC2S/C(=N/N=C3/NC(=O)CS3)NC2=O)cc1 (stereo not given)
→ x	-2.0	2.5	19.0	1.7	-7.9	-0.8
13	Cc1ccc(C(=O)N/C(=C\c2ccccc2)C(=O)NCC2CCCO2)cc1 (stereo not given)
→ 10.1%	2.0	-4.0	-0.1	2.6	-2.0	-3.8
14	O=C(CCn1ccnc1)Nc1cc(Cl)ccc1O
→ 0.7%	9.1	6.3	-6.9	-1.1	4.3	-2.2
15	Cc1ccc2c(c1)cc1c(=O)[nH]ncn12
→ 4.9%	0.2	-0.1	0.4	-2.9	-19.0	-1.1
16	COc1ccc(S(=O)(=O)N2CCc3ccccc32)cc1C(=O)N1CCOCC1
→ 1.6%	-1.4	x	-2.0	-0.5	x	4.0
17	COc1ccc(-n2c(=O)cc(N3CCc4ccccc43)[nH]c2=O)cc1
→ 2.1%	1.9	-7.7	-12.6	-4.7	3.3	4.3
18	Cc1nc2c(C(=O)NCc3ccc4c(c3)OCO4)cnn2c(C)c1Cc1ccc(F)cc1Cl
→ 1.6%	9.9	-0.7	23.5	3.4	-2.0	2.8
19	O=C(COC(=O)COc1cccc(C(F)(F)F)c1)NC1CCS(=O)(=O)C1 (stereo not given)
→ -6.0%	-7.2	-5.6	2.0	1.7	-4.8	-3.0
20	CCOC(=O)C1CSC(CC(=O)Nc2ccc(OC(F)(F)F)cc2)C(=O)N1 (stereo not given)
→ 0.7%	21.5	0.5	2.6	2.0	3.0	2.1
21	C/C(=N\N1C(=O)CSC1=S)c1ccc(Br)cc1
→ 22.3%	-5.1	-2.3	73.0*	3.2	-29.5	19.0
22	CCOC(=O)c1c(CN(C)C)n(C)c2c(O)c(N=NC(N)=O)c3ccc(Br)cc3c12
→ 4.3%	3.7	2.9	70.7	2.5	-24.8	3.7
23	CCCC(C(=O)c1ccccc1)n1cncn1 (stereo not given)
→ 7.9%	-5.2	4.7	-2.9	-3.4	-25.5	-4.5
24	O=C(c1ccc(-c2nnc(-c3ccccc3)o2)cc1)N1CCCCCC1
→ -4.9%	-0.2	-4.1	-2.2	-4.2	2.1	3.2
25	CN(c1ccccc1)S(=O)(=O)c1ccccc1Br
→ x	16.6	-3.6	x	x	-1.2	1.1
26	O=C(CSc1nnnn1C1CC2CCC1C2)Nc1ccnc2ccccc12 (stereo not given)
→ -4.4%	5.8	-1.9	x	x	x	-0.2
27	O=C(NCCC(=O)N1CCN(Cc2c(F)cccc2Cl)CC1)c1ccc(Cl)cc1
→ 10.2%	-27.2	0.7	x	x	-4.3	0.5
28	CCCc1cc(NC(=O)CCl)n(-c2ccccc2)n1
→ 30.6%	-3.2	1.0	22.6	-1.2	96.7*	2.6
29	CC(C)(C)C(=O)NC(=S)NNC(=O)c1ccc(Cl)cc1Cl
→ -3.7%	-4.4	2.2	-1.7	1.5	7.4	1.7
30	O=C(O)/C(CC(=O)c1ccc(Cl)cc1)=N/Nc1ccc([N+](=O)[O-])cc1[N+](=O)[O-]
→ 4.1%	9.2	2.3	-5.2	-1.3	97.5*	0.2
31	CCOC(=O)N1CCN(S(=O)(=O)c2cc([N+](=O)[O-])c(C)cc2C)CC1
→ -7.1%	-2.0	6.4	2.6	1.4	-0.9	4.2
32	O=c1c2ccccc2nnn1CSc1ncnc2ccccc12
→ 0.9%	8.1	x	-1.0	0.9	x	3.2
33	COc1cc(/C=C(/NC(=O)c2ccccc2Cl)C(=O)O)cc(OC)c1OC
→ 30.7%	-10.7	-6.5	-3.6	-0.1	x	-0.2
34	O=C(NNC(=O)c1ccccc1[N+](=O)[O-])c1ccco1
→ -6.3%	-7.2	3.1	2.3	-1.7	-37.9	-0.8
35	COc1ccccc1C(=O)NCC(=O)OCC(=O)c1ccc2c(c1)-c1ccccc1C2
→ -24.3%	2.6	-0.9	-11.7	-2.2	-10.4	6.9
36	Clc1cccc(Nc2nc(-c3cccnc3)cs2)c1
→ u	14.0	1.2	27.8	-2.4	2.7	0.9
37	CCOC(=O)c1ccccc1NC(=O)COC(=O)CCC1CCCC1
→ -13.1%	-4.6	-0.2	x	x	-2.5	0.9
38	CN(CC(=O)N1CCN(Cc2ccccc2)CC1)S(=O)(=O)c1cccc2nsnc12
→ 3.7%	-15.3	-0.3	18.6	-6.7	x	-1.1
39	Cc1cc(=O)oc2c(CN3CCC(C)CC3)c(O)c(Cl)cc12
→ 11.6%	1.3	5.6	-10.0	x	6.3	-18.1
40	NS(=O)(=O)c1ccc(CCNC(=O)COC(=O)CC(c2ccccc2)c2ccccc2)cc1
→ 23.7%	5.4	0.4	5.2	-0.8	-1.4	1.2

Sorted by the number under Vif TR-FRET (largest number first): some entries from above
No.	Molecule	Vif TR-FRET	B2AR ag	LANA-H2B inh	RanGTP-Imp inh	ALR inh	HNF4A DNA FP
39	Cc1cc(=O)oc2c(CN3CCC(C)CC3)c(O)c(Cl)cc12	11.6%	1.3	5.6	x	6.3	-18.1
38	CN(CC(=O)N1CCN(Cc2ccccc2)CC1)S(=O)(=O)c1cccc2nsnc12	3.7%	-15.3	-0.3	-6.7	x	-1.1
31	CCOC(=O)N1CCN(S(=O)(=O)c2cc([N+](=O)[O-])c(C)cc2C)CC1	-7.1%	-2.0	6.4	1.4	-0.9	4.2

(next part)
Order of values – Vif TR-FRET	B2AR ag	LANA-H2B inh	Calb FLC	RanGTP-Imp inh	ALR inh	HNF4A DNA FP
41	CCCCN1/C(=C/c2ccc3ccccc3[n+]2CC)Sc2ccccc21
→ x	x	x	u	-4.8	x	35.4
42	O=[N+]([O-])c1cccc(-c2cn(-c3ccccc3)c(=S)[nH]2)c1
→ 9.1%	-1.9	0.7	5.2	-1.9	1.7	0.5
43	CCC(=O)N(CCC(c1ccccc1)c1ccco1)Cc1cccs1 (stereo not given)
→ 6.2%	-4.4	7.3	-0.9	-1.6	u	-3.4
44	O=C(COC(=O)c1cccc(O)c1)Nc1nnc(-c2ccccc2)o1
→ -4.3%	4.5	1.4	-0.5	0.7	12.0	-2.6
45	COc1cccc(C(=O)CSc2nc3ccccc3n2CC(=O)N2CCOCC2)c1
→ 68.5%	1.4	6.4	24.9	2.2	x	-0.1
46	COCCN(Cc1cc2cc3c(cc2nc1Cl)OCO3)C(=O)c1ccc(C)cc1
→ -2.2%	-0.8	1.8	13.9	2.1	-6.5	-1.1
47	CCS(=O)(=O)CCSc1nc(C)cc(C)n1
→ -1.1%	2.9	-0.7	-3.2	2.6	-20.7	-0.8
48	NC(=O)C1CCN(C(=O)COc2cccc3ccccc23)CC1
→ -2.3%	5.0	6.1	8.7	-0.8	-7.7	-0.5
49	O=C(COC(=O)c1ccc(O)cc1O)NNC(=O)c1cccs1
→ 80.9%	-0.2	0.8	x	x	18.3	1.3
50	CC1CC(C)CN(C(=S)Nc2ccc(SC(F)F)cc2)C1 (stereo not given)
→ 15.9%	5.1	2.3	-3.8	u	-4.9	0.2
51	CCCCc1nnc(NC(=O)CSc2nc(=O)cc(N)n2-c2cccc(C)c2)s1
→ -1.2%	-3.0	1.4	1.9	u	98.4*	2.4
52	O=C(Nc1cccc(NC(=O)c2ccco2)c1)c1ccc2c(c1)OCCO2
→ x	-16.4	-1.2	-21.5	1.8	-12.8	-6.7
53	O=C(Cc1c(F)cccc1Cl)Nc1ccccc1-c1ccccc1
→ 6.0%	2.4	-2.7	-6.0	-3.2	0.0	-1.5
54	COCCCNC(=O)Cn1cnc2sc(C)c(S(=O)(=O)N3CCN(c4ncccn4)CC3)c2c1=O
→ -3.3%	-6.8	7.5	-15.1	4.9	-4.6	-0.8
55	[O-]/[N+](=C\c1ccc(OC(F)F)cc1)c1ccccc1
→ 25.7%	2.3	-2.1	14.7	2.5	-15.4	0.4
56	O=C(CSc1nnc(CN2CCOCC2)n1-c1ccc(Cl)cc1)Nc1ccc2c(c1)OCO2
→ -0.2%	20.4	2.2	3.3	2.6	-9.3	0.2
57	COc1ccccc1N1CCN(C(=O)c2cc(-c3ccc(Br)cc3)on2)CC1
→ 5.5%	8.6	0.3	3.0	8.9	-26.7	0.7
58	CCC(C)(C(=O)NC1CCCC1)N(Cc1ccco1)C(=O)Cc1cccs1 (stereo not given)
→ 3.2%	0.5	-1.0	19.5	-5.4	10.2	-0.1
59	COCCCN(C(=O)c1cc2c(s1)CCC2)c1c(N)n(Cc2ccccc2)c(=O)[nH]c1=O
→ u	-8.1	-2.1	7.9	4.9	-5.7	-6.6
60	O=c1cc(C(F)(F)F)[nH]c2ccc(C(F)(F)F)cc12
→ x	14.2	-0.1	-5.0	5.7	2.9	-1.4
61	Cc1cc(NC(=O)c2ccc3c(c2)C(=O)N(C)C3=O)no1
→ -1.6%	-6.5	3.4	-3.6	0.5	-11.1	3.0
62	COc1ccccc1-n1ccnc(SCC(=O)NCCc2ccccc2)c1=O
→ 0.8%	6.9	x	-0.4	1.1	x	0.0
63	CCc1ccc2nc(N(CCCN(C)C)C(=O)c3ccc(S(=O)(=O)N4CCCc5ccccc54)cc3)sc2c1
→ x	27.6	-0.5	-13.3	u	-13.3	6.6
64	COCCNC(=O)C(c1cccs1)N(Cc1ccccc1)C(=O)Cn1nnc2ccccc21 (stereo not given)
→ 29.4%	7.0	4.2	-5.8	0.9	0.5	-0.7
65	Cn1c(=O)cc(OCC(=O)NCc2ccccn2)c2ccccc21
→ 22.3%	-1.4	1.6	-0.7	1.9	-13.8	1.2
